High-throughput results: PubChem, National Center for Advancing Translational Sciences (NCATS)
ClpP mod: qHTS Assay for Activators of ClpP; ATP-dependent Clp protease proteolytic subunit (Bacillus subtilis (strain 168)), P80244; purified B. subtilis ClpP, FRET peptide cleavage, 20 min; Potency, µM (titrated, usually from 57.5 µM), for inactives: at the highest dose activity change, negative = active; 340,000 compounds, 1.9% hits; AID 651965, 2013; active = well fitted falling curve with a large enough effect; inconclusive = small, poorly fitted or top-dose-only effect; inactive = no such curve, though single readings can be large or run the other way; further: potency means the concentration at half of the fitted maximal effect; the source files actives as falling curves though it sought activators and does not explain the sign; nearly all actives have a fitted effect of over 65% in size; many hits overshoot -100%
Target sequence (P80244 whole entry, looked up): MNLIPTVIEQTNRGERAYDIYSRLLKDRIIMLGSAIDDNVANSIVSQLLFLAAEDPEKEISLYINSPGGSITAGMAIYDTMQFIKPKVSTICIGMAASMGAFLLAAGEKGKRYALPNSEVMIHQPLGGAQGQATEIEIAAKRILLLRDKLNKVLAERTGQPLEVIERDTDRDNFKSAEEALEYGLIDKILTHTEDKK
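FRET quenching reversal measured ClpP activation: 10 microg/mL B. subtilis ClpP at pH 8 with the FRET-FV decapeptide, read at 430 nm after 320 nm excitation. The 20-min minus 0-min signal was scaled between DMSO/no-enzyme wells and ADEP (5.8 microM final).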
Sfp inh: qHTS Assay for Inhibitors of Bacillus subtilis Sfp phosphopantetheinyl transferase (PPTase). 4'-phosphopantetheinyl transferase ffp (Bacillus subtilis), Q9F4F7. Biochemical Sfp PPTase activity, qHTS. Potency, µM, without a hit: max response, negative = inhibition, actives largely listed as inhibitors. 310,000 compounds, 3.5% hits. AID 1490, 2009; active means well fitted inhibition curve with a large enough effect; inconclusive means small, poorly fitted or top-dose-only effect, or another doubt; inactive means no such curve, though single readings can be large or run the other way;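 further: the enzyme is Sfp with the accession as filed and its product quenches rhodamine fluorescence; potency means the concentration at half of the fitted maximal effect; 0% = enzyme reaction without inhibitor and -100% = no enzyme wells; top concentration of the series not given in the record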
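Fluorescence-quenching assay: 15 nM Sfp-PPTase preincubated 15 min at room temperature with compound, then 5 uM rhodamine-CoA and 12.5 uM BHQ-2-labelled YbbR peptide added. Fluorescence (ex 525/em 598 nm) read at start and after 30 min; difference gives rate.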
D2 potentiator: Beta-Arrestin HTS for Positive Allosteric Modulators of the Human D2 Dopamine Receptor: Potentiators. D(2) dopamine receptor (Homo sapiens), P14416. DiscoveRx D2 beta-arrestin cells, luminescence, 90 min; 100% = 57 uM dopamine signal. potentiation, % (test concentration not listed). 360,000 compounds, 0.23% hits; active = potentiation of 50% or more; inconclusive = 30% to 50%; inactive = 30% or less;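 further: compound concentration not given in the record; tested on top of an EC20 dose of dopamine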
Target sequence (P14416 whole entry, looked up): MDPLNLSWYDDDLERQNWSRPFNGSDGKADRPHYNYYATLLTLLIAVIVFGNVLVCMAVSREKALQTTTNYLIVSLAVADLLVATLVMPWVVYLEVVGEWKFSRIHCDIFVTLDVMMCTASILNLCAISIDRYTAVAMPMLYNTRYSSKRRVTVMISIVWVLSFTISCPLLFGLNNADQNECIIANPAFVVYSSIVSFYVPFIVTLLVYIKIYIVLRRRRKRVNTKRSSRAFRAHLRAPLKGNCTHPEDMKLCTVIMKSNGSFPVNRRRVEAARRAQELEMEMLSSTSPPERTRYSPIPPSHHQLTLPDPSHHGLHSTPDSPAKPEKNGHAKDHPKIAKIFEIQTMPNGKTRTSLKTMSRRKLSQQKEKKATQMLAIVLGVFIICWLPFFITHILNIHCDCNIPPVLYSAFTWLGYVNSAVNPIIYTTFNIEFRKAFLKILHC
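PathHunter D2 cells, attached overnight at 37 deg C, received compound in DMSO plus dopamine at EC20 (50 nM final) for 90 min at 37 deg C. Beta-arrestin recruitment was read as luminescence after 1 h with detection reagent at ambient temperature.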
gsp antag: qHTS for Antagonists of gsp, the Etiologic Mutation Responsible for Fibrous Dysplasia/McCune-Albright Syndrome: qHTS; AID 624288, 2012; gsp-mutant cells, cAMP HTRF, 30 min; control for the full effect not named in the record; 340,000 compounds, 0.4% hits; Potency, µM (doses to about 76.9 µM), for the others: at the highest dose activity change, negative = inhibition, hits mostly inhibitors; active = falling curve of any shape with a large fitted effect; inconclusive = falling curve, mostly with a smaller effect; inactive = flat or rising curve; cell line not stated here;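 further: intracellular cAMP measured with PDE inhibitor Ro 20-1724 present during compound exposure; potency means the concentration at half of the fitted maximal effect; on the % scale 0 is the no-effect control and ±100 the full control effect; nearly all actives have a fitted effect of over 65% in size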
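Cells, 2000/well, grown 16–24 h in DMEM 10% FBS with 0.5 mg/ml G418, then compounds plus […] (300 uM addition stock), 30 min at 37C. cAMP read by HTRF (cAMP-d2 and anti-cAMP antibody-K in lysis buffer) after 30 min RT.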
gsp ag: qHTS for Agonist of gsp, the Etiologic Mutation Responsible for Fibrous Dysplasia/McCune-Albright Syndrome: qHTS | gsp mutant cells, cAMP HTRF, 30 min; control for the full effect not named in the record | Potency, µM (doses to about 76.9 µM), without a hit: top-dose activation (cAMP increase), hits mostly activators | 340,000 compounds, 0.13% hits | AID 624287, 2012; active = well fitted activation curve with a large enough effect; inconclusive = small, poorly fitted or top-dose-only effect, or another doubt; inactive = no such curve, though single readings can be large or run the other way; cell line not stated here;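 further: phosphodiesterase inhibitor Ro 20-1724 added with compounds to block cAMP breakdown; potency means the concentration at half of the fitted maximal effect; nearly all actives have a fitted effect of over 60% in size; about a fifth of the inactives were tested at one dose only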
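Cells stably selected in G418 were plated at 2000/well, grown 16-24 hr, then given compounds in DMSO with the PDE inhibitor […] (300 uM solution added) for 30 min at 37C; cAMP was read by HTRF.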
Menin-MLL FL inh: qHTS Assay for Inhibitors Targeting the Menin-MLL Interaction in MLL Related Leukemias: Competition With Fluorescein Labeled MLL-derived Peptide; Fluorescence polarization, fluorescein-MLL peptide displacement from menin; FP activity change, % at 61.4 µM; 290,000 tested, under 10 active; inconclusive = falling polarisation curve, or a change in total fluorescence; inactive = total fluorescence flat and polarisation flat or rising; no compound was filed as active; the % refers to the polarisation; negative = inhibition;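 further: % of control where 0% means no effect; inhibitors lower the polarisation; unlabelled MLL peptide was the positive control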
TRPV1 PAM: HTS Assay for Compounds that Act as Potentiators of the Vanilloid Receptor 1; 320,000 compounds, 0.02% hits; potentiation, % at 8.33 µM; TRPV1-expressing cells, Fluo-8 calcium influx, capsaicin EC20 potentiation; host cell line not named in the record; control for the full effect not named in the record; active means potentiation above 80%; inconclusive means 30% to 80%; inactive means below 30%; further: 0% is about no effect
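TRPV1-expressing cells were cultured overnight at 35.5C and loaded with Fluo-8 calcium dye for 40 to 90 min at room temperature. After a 10 s baseline, compound was added and calcium influx was read kinetically for 3 min (ex 480/em 520 nm).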
Active calls of the source: *; ? = inconclusive; . = not tested or not shown; [ ] = dose if it differs, or a comment. Not a hit list; any-hit rate near 5.1%.

SMILES	ClpP mod	Sfp inh	D2 potentiator	gsp antag	gsp ag	Menin-MLL FL inh	TRPV1 PAM
CCc1ccc(Nc2ncc3c(n2)CC(c2ccco2)CC3=O)cc1 (stereo unspecified)	-25%	-4%	-7	-21%	19%	7.9	?
CC1CCc2c(sc(N)c2C(=O)OC(C)C)C1 (stereo unspecified)	-0.1%	?	-7	-4%	8%	1.4	-14
C=C1C(=O)C23CCC4C(C)(C(=O)OC)CCCC4(C)C2CCC1(O)C3 (stereo unspecified)	-1.8%	.	-36	7%	9%	.	.
O=C(Nc1ccc(Br)cn1)c1ccc(COc2c(F)c(F)cc(F)c2F)o1	-3.4%	.	-1	-6%	28%	.	-10
Cc1ccc(-c2cc(C(=O)N3CCc4ccccc4C3)[nH]n2)cc1C	-3.4%	11%	-1	6%	-38%	0.0	-6
O=[N+]([O-])c1ccc(C(O)C(CO)NC(=S)Nc2ccccc2)cc1 (stereo unspecified)	-6.6%	7%	-4	-12%	12%[15.4 µM]	3.2	2
COc1ccccc1OCC(=O)NCCS(=O)(=O)N1CCN(c2ccc(F)cc2)CC1	-0.5%	13%	8	-23%	?	-0.4	8
CCC(=O)Nc1cccc(-c2ccc(N3CCN(C)CC3)nn2)c1	0.4%	15%	-6	8%	-21%	2.2	3
CC1CCN(c2nc3c(c(=O)n(C)c(=O)n3C)n2CCSc2nc3ccccc3s2)CC1	0.1%	-16%	-15	-9%	-22%	1.6	-6
CCOC(=O)C(O)(CC(=O)c1ccc(Cl)cc1)C(=O)OCC	0.4%	13%	-5	16%	3%[15.4 µM]	0.2	-7
Cc1cc(C)c(NC(=O)CO/N=C2\CCCc3nonc32)c(C)c1	0.1%	7%	-6	2%	-2%[15.4 µM]	-0.1	0
Cc1ccc(NC(=O)CN2C(=O)N/C(=C/c3ccco3)C2=O)cc1	1.2%	45µM*	2	-5%	-17%	48[activator]	.
Cc1cc(C(=O)NC(=S)Nc2cccc(C(=O)O)c2C)ccc1[N+](=O)[O-]	0.6%	-24%	0	2%	-70%[inhibitor]	-0.2	-11
O=C(/C=C/c1ccc(Br)cc1)Nc1ccc(S(=O)(=O)Nc2ncccn2)cc1	-2.5%	10%	-15	0%	?	-1.8	6
COc1ccc(N2CCN(C(=O)c3sc4nc(-c5ccc(F)cc5)cn4c3C)CC2)cc1	2.2%	-28%	-3	3%	4%	-2.1	-9

Another view of some results above:
mol,ClpP mod,Sfp inh,D2 potentiator,gsp antag,gsp ag,Menin-MLL FL inh,TRPV1 PAM
CCC(=O)Nc1cccc(-c2ccc(N3CCN(C)CC3)nn2)c1,0.4%,15%,-6,8%,-21%,2.2,3
CC1CCN(c2nc3c(c(=O)n(C)c(=O)n3C)n2CCSc2nc3ccccc3s2)CC1,0.1%,-16%,-15,-9%,-22%,1.6,-6
CCOC(=O)C(O)(CC(=O)c1ccc(Cl)cc1)C(=O)OCC,0.4%,13%,-5,16%,3%[15.4 µM],0.2,-7
Cc1cc(C)c(NC(=O)CO/N=C2\CCCc3nonc32)c(C)c1,0.1%,7%,-6,2%,-2%[15.4 µM],-0.1,0
Cc1ccc(NC(=O)CN2C(=O)N/C(=C/c3ccco3)C2=O)cc1,1.2%,45µM*,2,-5%,-17%,48[activator],.
Cc1cc(C(=O)NC(=S)Nc2cccc(C(=O)O)c2C)ccc1[N+](=O)[O-],0.6%,-24%,0,2%,-70%[inhibitor],-0.2,-11

(listing goes on)
SMILES	ClpP mod	Sfp inh	D2 potentiator	gsp antag	gsp ag	Menin-MLL FL inh	TRPV1 PAM
Cn1c(/C(C#N)=C/C2CC=CCC2)nc2ccccc21 (stereo unspecified)	-27%	16%	-9	-1%	4%	-0.6	-13
COc1ccccc1C(=O)NC(CCSC)C(=O)N1CCN(C/C=C/c2ccccc2)CC1 (stereo unspecified)	-2.2%	.	-20	-19%	18%[15.4 µM]	.	?
O=C(NCc1ccco1)c1ccc2nccnc2c1	-1.1%	10%	-7	0%	13%	3.3	-3
Cc1cc(C(=O)Nc2ccc3ccccc3c2)oc1C	.	-1%	-11	-5%	5%	0.1	-1
Cc1cccc(C(=O)OCC(=O)N2CC(C)OC(C)C2)c1C (stereo unspecified)	.	7%	6	-1%	11%[15.4 µM]	.	4
Cn1cnnc1Sc1ccc(S(C)(=O)=O)cc1[N+](=O)[O-]	.	12%	8	-11%	-1%[15.4 µM]	1.3	-19
Cc1ccc(CCNC(=O)CCn2ccc3cc(S(=O)(=O)N4CCCC4)ccc32)cc1	-4.3%	6%	-15	-6%	1%	2.2	4
COc1cc(C(=O)NNC(=O)NC2CCCCC2)cc(OC)c1OC	-1.5%	21%	7	11%	-29%	0.6	4
CN(Cc1ccccc1)C(=O)CCC1CCN(S(C)(=O)=O)CC1	.	7%	-2	13%	-17%	-7.2	-4
Cc1sc2nc(CN3CCCCC3)nc(Cl)c2c1C	-4.3%	-7%	-13	-1%	9%[15.4 µM]	-6.9	-9
CCc1ccc(C(=O)Nc2cc(C)on2)o1	.	14%	-5	4%	?	0.2	3
C/C(=N\NC(=O)c1cccnc1)c1cccc([N+](=O)[O-])c1	-2.7%	20%	-8	1%	?	-0.9	2
COc1cc(Cl)c(S(=O)(=O)NCCCn2ccnc2)cc1Cl	.	18%	-6	-5%	-47%[inhibitor]	-5.8	2
Cc1cc(-c2nnc(-c3cccc(C(F)(F)F)c3)o2)no1	0.9%	13%	-8	5%	62%[15.4 µM]	1.3	.
CCOc1ccc(N2CC(O)Cn3c2nc2c3c(=O)n(CCCc3ccccc3)c(=O)n2C)cc1 (stereo unspecified)	-9.4%	2%	-3	-6%	0%	-0.3	8

Three entries out of the list above, sorted by their value in gsp antag, ascending:
Structure	gsp antag
Cn1cnnc1Sc1ccc(S(C)(=O)=O)cc1[N+](=O)[O-]	-11%
CCOc1ccc(N2CC(O)Cn3c2nc2c3c(=O)n(CCCc3ccccc3)c(=O)n2C)cc1 (stereo unspecified)	-6%
CCc1ccc(C(=O)Nc2cc(C)on2)o1	4%

New compounds follow
SMILES	ClpP mod	Sfp inh	D2 potentiator	gsp antag	gsp ag	Menin-MLL FL inh	TRPV1 PAM
COc1ccc(NC(=O)Oc2ccccc2)cc1Cl	-1.1%	2%	2	3%	-4%[15.4 µM]	-1.9	17
O=C(Nc1cccc(Cl)c1)c1cc([N+](=O)[O-])ccc1N1CCN(CCO)CC1	.	6%	-1	5%	-65%[inhibitor]	-1.2	-9
O=C(CCCOc1ccc(Cl)cc1)NCCc1ccccc1	-2.9%	4%	-6	-12%	17%[15.4 µM]	-2.7	-15
O=C(Cc1ccccc1)Nc1ccc(NC(=O)c2cccs2)c(Cl)c1	-2.6%	11%	9	-27%	0%	1.8	-16
N#Cc1ccc(-c2ccc(OCC(=O)NN=Cc3ccncc3)cc2)cc1	?	.	-6	35µM*	8%	.	.
CCOC(=O)c1sc2cccc(Cl)c2c1N	-9.3%	-3%	-22	10%	?	-1.2	7
Cc1nnc(NC(=O)CSc2nccn2-c2ccc(F)cc2)s1	.	4%	3	8%	-3%[15.4 µM]	3.8	?
O=C(c1cc(S(=O)(=O)N2CCCCC2)ccc1Cl)N1CCOCC1	-1.1%	2%	-4	9%	-2%[15.4 µM]	-0.3	-3
Cc1nc2ccccc2c2oc(C(=O)N3CCCC(C)C3)cc12 (stereo unspecified)	1.3%	-6%	2	7%	-3%	-4.4	-21
Cc1nnc(SCC(=O)N2c3ccccc3C(C)(c3ccc(Cl)cc3)CC2(C)C)s1 (stereo unspecified)	32µM*	17%	-8	?	17%	-1.4	14
COc1ccc(NC(=O)CSCc2cc(=O)n3cc(C)sc3n2)cc1	-3.1%	8%	-8	2%	-33%[inhibitor]	.	9
Brc1ccc(/C=N/Nc2ccccc2)cc1	.	-4%	10	1%	-4%[15.4 µM]	3.9	5
Cc1ccc(S(=O)(=O)Nc2ccccc2F)cc1C(=O)NNC(=O)c1csc(N2CCOCC2)n1	.	.	-2	2%	5%[15.4 µM]	.	6
COc1ccc(Nc2nc(N)c([N+](=O)[O-])c(NCCO)n2)cc1	.	-5%	-2	-7%	8%[15.4 µM]	1.4	6
Cc1cc(-c2ccccc2)c(C#N)c(SCC(N)=O)n1	-4.6%	5%	-4	?	19%	1.9	-16
CCN(C[C@H]1N[C@@](Cc2ccccc2)(C(=O)OC)[C@H]2C(=O)N(C)C(=O)[C@@H]12)C(C)=O	-3.4%	.	-6	5%	.	.	.
CC(=O)Nc1ccc(NC(=O)CSc2ncnn2-c2ccccc2)cc1	-2.4%	8%	5	-6%	-27%	-0.8	29
Cc1nc2c(C(=O)O)cnn2c(C)c1Cc1ccccc1F	?	-3%	-4	-5%	2%	3.9	-1
CCOC(=O)N1CCN(C(=O)C2CC(=O)N(Cc3ccc(OC)cc3)C2)CC1 (stereo unspecified)	-0.3%	14%	13	-5%	-1%	-0.2	-15
O=S(=O)(Nc1ccc2c(c1)OCCO2)c1cccc2cccnc12	1.7%	-7%	-11	9%	-14%	-0.7	22
O=C(CSc1nnc(-c2cccnc2)n1C1CCCCC1)NC1CCCC1	0.2%	13%	-11	3%	4%	1.4	0
COCCn1nnnc1C(c1cc2cc(C)ccc2[nH]c1=O)N1CCN(C2CCCCC2)CC1 (stereo unspecified)	?	-3%	-8	-1%	-19%	22	-11
